# High-throughput results (PubChem BioAssay)
# gsp agonist: agonists of gsp mutant (McCune-Albright syndrome); gsp mutant cells, cAMP HTRF, 30 min; control for the full effect not named in the record; Potency, µM (highest dose often 76.9 µM), for inactives: at the highest dose activation (cAMP increase), usual class: activators; hit rate 0.13% among 340,000; active = well fitted activation curve with a large enough effect; inconclusive = small, poorly fitted or top-dose-only effect, or another doubt; inactive = no such curve, though single readings can be large or run the other way; cell line not stated here;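 further: phosphodiesterase inhibitor Ro 20-1724 added with compounds to block cAMP breakdown; potency means the concentration at half of the fitted maximal effect; nearly all actives have a fitted effect of over 60% in size; about a fifth of the inactives were tested at one dose only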
#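 Cells in DMEM/10% FBS with G418 were pretreated with compounds in DMSO plus […] (300 uM stock) for 30 min at 37C. cAMP was measured by HTRF (cAMP-d2 plus anti-cAMP antibody-K) after 30 min at room temperature.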
# TRPV1 PAM: enhances activation of the human vanilloid receptor TRPV1; Q8NER1; TRPV1-expressing cells, Fluo-8 calcium influx, capsaicin EC20 potentiation; host cell line not named in the record; control for the full effect not named in the record; potentiation, % at 8.33 µM; hit rate 0.02% among 320,000; active means potentiation above 80%; inconclusive means 30% to 80%; inactive means below 30%; further: 0% is about no effect
# Target sequence (Q8NER1 whole entry, looked up): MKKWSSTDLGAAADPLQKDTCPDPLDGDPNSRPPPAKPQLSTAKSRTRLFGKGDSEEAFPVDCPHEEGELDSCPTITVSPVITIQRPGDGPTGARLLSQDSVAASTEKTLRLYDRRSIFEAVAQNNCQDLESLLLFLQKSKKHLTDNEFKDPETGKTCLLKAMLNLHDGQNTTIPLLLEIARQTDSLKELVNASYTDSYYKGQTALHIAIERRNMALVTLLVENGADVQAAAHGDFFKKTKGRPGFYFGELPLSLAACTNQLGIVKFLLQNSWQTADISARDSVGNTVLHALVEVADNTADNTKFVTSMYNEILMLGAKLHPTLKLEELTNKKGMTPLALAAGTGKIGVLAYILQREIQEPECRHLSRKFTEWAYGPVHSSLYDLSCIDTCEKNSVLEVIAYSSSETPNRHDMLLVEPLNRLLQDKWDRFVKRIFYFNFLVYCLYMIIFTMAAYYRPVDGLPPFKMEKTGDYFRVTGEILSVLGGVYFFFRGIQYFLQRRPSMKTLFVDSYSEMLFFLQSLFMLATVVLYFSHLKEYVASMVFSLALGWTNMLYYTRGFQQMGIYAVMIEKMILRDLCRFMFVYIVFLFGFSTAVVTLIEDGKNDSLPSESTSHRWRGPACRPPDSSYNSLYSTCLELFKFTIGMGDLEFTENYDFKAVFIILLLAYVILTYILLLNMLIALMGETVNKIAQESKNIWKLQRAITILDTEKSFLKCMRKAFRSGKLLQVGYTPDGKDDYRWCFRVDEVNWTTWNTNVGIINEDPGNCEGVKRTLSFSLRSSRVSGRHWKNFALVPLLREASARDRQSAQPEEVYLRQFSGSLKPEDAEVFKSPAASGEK
#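 TRPV1-expressing cells were cultured overnight at 35.5C and loaded with Fluo-8 calcium dye for 40 to 90 min at room temperature. After a 10 s baseline, compound was added and calcium influx was read kinetically for 3 min (ex 480/em 520 nm).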
# CtBP-E1A blk: inhibitors of CtBP/E1A interaction | AID 651724 | AlphaScreen GST-E1A/His-CtBP binding, 1536-well; hits give low values; control for the full effect not named in the record | activity change, % (test concentration not listed) | hit rate 0.49% among 340,000; in the data active means activity change below about -65%; inconclusive means about -30% to -65%; inactive means above about -30%; further: on the % scale 0 is the no-effect control and ±100 the full control effect; compound concentration not given in the record
#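 AlphaScreen with 125 nM GST-E1A and 125 nM His-CtBP (5X stocks) in Tris pH 8.0, 300 mM NaCl, BSA, Tween 20, TCEP. Compounds preincubated 2 h at 37 deg C, then glutathione donor/nickel acceptor beads added for 1 h at 37 deg C in dark.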
# ClpP mod: qHTS Assay for Activators of ClpP; ATP-dependent Clp protease proteolytic subunit (Bacillus subtilis (strain 168)), P80244; purified B. subtilis ClpP, FRET peptide cleavage, 20 min; Potency, µM (series often up to 57.5 µM), for inactives: at the top dose activity change, negative = active; hit rate 1.9% among 340,000; AID 651965, 2013; active = well fitted falling curve with a large enough effect; inconclusive = small, poorly fitted or top-dose-only effect; inactive = no such curve, though single readings can be large or run the other way; further: potency means the concentration at half of the fitted maximal effect; the source files actives as falling curves though it sought activators and does not explain the sign; nearly all actives have a fitted effect of over 65% in size; many hits overshoot -100%
# Target sequence (P80244 whole entry, looked up): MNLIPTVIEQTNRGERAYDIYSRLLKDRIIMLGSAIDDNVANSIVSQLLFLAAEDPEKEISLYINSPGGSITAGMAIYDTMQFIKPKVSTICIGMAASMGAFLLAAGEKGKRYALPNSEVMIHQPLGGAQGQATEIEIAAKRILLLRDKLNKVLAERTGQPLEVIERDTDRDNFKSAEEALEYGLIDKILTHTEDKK
#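 Purified B. subtilis ClpP, 10 microg/mL final in Tris/HCl pH8 with KCl, BSA, glycerol and Tween-20, cleaved an Abz/nitrotyrosine-quenched decapeptide. Fluorescence (ex 320, em 430) was read at 0 and 20 min at room temperature. Delta was normalized to 5.8 microM ADEP and DMSO/no-enzyme controls.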
# gsp antagonist: antagonizes gsp, the McCune-Albright syndrome mutation; hit rate 0.4% among 340,000; Potency, µM (series often up to 76.9 µM), for inactives: top-dose activity change, negative = inhibition, most hits filed as inhibitors; gsp-mutant cells, cAMP HTRF, 30 min; control for the full effect not named in the record; AID 624288; active = falling curve of any shape with a large fitted effect; inconclusive = falling curve, mostly with a smaller effect; inactive = flat or rising curve; cell line not stated here;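 further: intracellular cAMP measured with PDE inhibitor Ro 20-1724 present during compound exposure; potency means the concentration at half of the fitted maximal effect; on the % scale 0 is the no-effect control and ±100 the full control effect; nearly all actives have a fitted effect of over 65% in size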
#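 G418-selected cells were plated in DMEM/10% FBS for 16-24 h at 37C, then treated with compounds plus the PDE inhibitor […] (300 uM solution added) for 30 min at 37C. Intracellular cAMP was measured by HTRF after 30 min lysis at room temperature.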
# Menin MLL FP FL: inhibitors of human menin-MLL interaction, wild-type MLL peptide | Fluorescence polarization, fluorescein-MLL peptide displacement from menin | FP activity change, % at 61.4 µM | 290,000 tested, under 10 active; inconclusive = falling polarisation curve, or a change in total fluorescence; inactive = total fluorescence flat and polarisation flat or rising; no compound was filed as active; the % refers to the polarisation; negative = inhibition;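 further: % of control where 0% means no effect; inhibitors lower the polarisation; unlabelled MLL peptide was the positive control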
# Sfp PPTase inh: inhibitors of Bacillus subtilis Sfp phosphopantetheinyl transferase | Q9F4F7 | Biochemical Sfp PPTase activity, qHTS | Potency, µM, without a hit: max response, negative = inhibition, most hits filed as inhibitors | hit rate 3.5% among 310,000 | AID 1490; active means well fitted inhibition curve with a large enough effect; inconclusive means small, poorly fitted or top-dose-only effect, or another doubt; inactive means no such curve, though single readings can be large or run the other way;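 further: the enzyme is Sfp with the accession as filed and its product quenches rhodamine fluorescence; potency means the concentration at half of the fitted maximal effect; 0% = enzyme reaction without inhibitor and -100% = no enzyme wells; top concentration of the series not given in the record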
#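 Buffer: 50 mM Hepes-Na pH 7.6, 10 mM MgCl2, 0.01% Nonidet P-40, 0.01% BSA. Enzyme 15 nM, pre-exposed to compound 15 min; substrates then added and fluorescence change tracked over 30 min.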
# Starred values were filed as active, the others as inactive; ? = inconclusive; / = no result given; & = joins results of further samples; [ ] = another dose, or the depositor's remark.
smiles,gsp agonist,TRPV1 PAM,CtBP-E1A blk,ClpP mod,gsp antagonist,Menin MLL FP FL,Sfp PPTase inh
NS(=O)(=O)c1cc2c(cc1Cl)NC(C1C[C@H]3C=C[C@@H]1C3)NS2(=O)=O (some centres not stated),/,-4.0,-0.5,-2.0%,8.2%,3.4,19.1%
COc1nc(C)nc2c1ccc1ccccc12,-24.0%,5.7,-0.3,-24.1%,-0.9%,0.9,10.0%
COc1ccc(/C=C2\SC(=S)N(CC(=O)OCC(=O)Nc3cc(Cl)cc(Cl)c3)C2=O)cc1,-5.1%,-2.4,/,-2.4%,-1.8%,11.1,20µM*
O=C(O)C1CC(=O)N(c2ccc(OCc3ccc(Cl)cc3Cl)cc2)C1 (configuration not stated),-21.8%,-7.9,-3.3,0.4%,-13.8%,-0.1,16.2%
CCCCNC(=O)c1onc(CSc2ccc(C(C)C)cc2)c1C(=O)O,-12.9%,12.9,-2.5,-1.5%,-12.9%,2.0,21.8%
COc1cc(C)ccc1OCC(=O)OCC(=O)c1[nH]c(C)c(C(C)=O)c1C,8.6%[15.4 µM],/,-3.0,-1.6%,-17.8%,/,/
CC(C)OC(=O)C(C)Nc1ccc(F)c(Cl)c1 (configuration not stated),1.8%[15.4 µM],23.5,11.2,-0.7%,2.8%,4.0,12.0%
CC(C)n1cc([C@@H]2C[C@H]3CN(Cc4cccc(Cl)c4)C(=O)[C@]34CCCN24)cn1,-5.1%,25.4,-1.6,/,-4.1%,?,18.1%
Cc1nc(SCc2nc3ccccc3[nH]2)c2oc3ccccc3c2n1,-0.7%,-12.6,-19.6,-1.1%,6.1%,10.0,11.7%
CCc1cc2c(C)ccc(C)c2nc1SCC(=O)Nc1c(C)[nH]c(=O)[nH]c1=O,15.5%[15.4 µM],-4.1,9.7,-2.4%,-8.1%,1.6,14.6%
CCOC(=O)c1c(NC(=O)CC)sc(C(C)=O)c1C,?,-14.4,-1.6,1.9%,4.3%,1.9,39.8µM*
Cc1ccc(C)n1NC(=O)c1ccc(Cl)cc1,20.0%,2.8,0.0,9.9%,-5.7%,0.1,1.4%
CCOC(=O)c1ccc(N2C(=O)C(O)=C(C(C)=O)C2c2ccc([N+](=O)[O-])cc2)cc1 (configuration not stated),-14.0%,-4.9,/,-0.5%,-5.3%,-5.8,0.4%
Cc1cccc(C)c1OCC(=O)N(Cc1ccc(N(C)C)cc1)C1CCS(=O)(=O)C1 (configuration not stated),-2.6%,-14.9,-1.9,0.0%,-13.4%,-2.9,2.1%
CCN(CC(=O)Nc1c(F)cccc1F)C(=O)c1ccc2c(c1)OCCO2,18.0%,-7.9,-15.4,-2.8%,-12.6%,/,/
CSc1cc(C)[nH]c(=O)n1,-95.7%[inhibitor],21.6,-2.4,0.1%,8.1%,-0.5,7.9%
O=Cc1ccc(-c2cccs2)s1,7.0%,/,-10.5,?,-19.1%,/,/
O=C(NCC1CC1)c1onc(CSc2ccc(F)c(F)c2)c1C(=O)NCC1CC1,?,-15.4,14.6,0.7%,-4.9%,/,/
CC1Oc2ccccc2N(Cc2cccnc2)C1=O (configuration not stated),?,-0.4,-16.3,-1.1%,12.7%,2.7,2.2%
O=C(COC(=O)c1ccccc1NC(=O)c1ccco1)Nc1ccc2c(c1)OCO2,0.8%,-5.6,-10.6,193.5%,-7.8%,5.8,-12.6%
CCCCc1c(C)nc2ccc(C)cc2c1SCCC(=O)O,25.9%,0.3,0.0,/,-5.2%,-4.4,-17.7%
CCOc1cccc(/C=C2\NC(=S)N(c3ccccc3)C2=O)c1O,?,1.1,/,-0.1%,-30.7%,?,1.8%
Cc1ccc(C(=O)Nc2cccc(C(=O)O)c2)cc1,0.0%,12.0,-1.9,-1.8%,15.0%,-1.1,17.1%
CCOC(=O)c1cccc(NC(=O)c2cncc(Br)c2)c1,-33.1%[inhibitor],-1.6,-16.9,-2.6%,6.0%,1.4,2.4%
COc1cc(C(=O)O)cc(OC)c1OCc1cc(C(=O)O)oc1C,?,6.8,3.6,-1.3%,7.6%,-1.1,16.9%
Cc1cc(C)nc(-n2nc(C)cc2NC(=O)CN2CCCC(C)C2)n1 (configuration not stated),-25.0%,-10.9,17.4,1.0%,2.5%,0.2,5.1%
c1ccc(OCCSc2ncnc3nc[nH]c23)cc1,?,/,6.8,0.1%,-7.9%,/,/
Cc1onc(-c2ccccc2Cl)c1C(=O)NCc1ccc(S(N)(=O)=O)cc1,-1.8%,-10.1,-0.3,0.1%,-1.9%,-0.5,4.5%
CCCOn1c(-n2nc(C)cc2C)nc2ccccc2c1=O,23.4%,3.7,6.0,1.8%,2.2%,0.3,5.5%
CC(C)[C@H](NC(=O)c1c(F)cccc1F)C(=O)N1CCN(c2ccc(F)cc2)CC1,3.7%,11.3,0.0,/,-3.3%,2.9,5.4%
Cc1cc(C(=O)Nc2cccc(NC(=O)c3ccco3)c2)ccc1[N+](=O)[O-],15.3%,-2.2,-7.8,0.9%,-35.4%,/,-1.5%
Cc1ccc(/C=N/NC(=O)c2cc3ccccc3cc2O)o1,-26.8%[15.4 µM],6.3,-9.9,/,-17.4%,10.8,13.6%
CC(=O)c1c(C)[nH]c(C(=O)COC(=O)CCNS(=O)(=O)c2ccc(C)c(C)c2)c1C,-2.5%,/,?,-1.6%,-25.5%,/,/
CCCNC(=O)COc1coc(CN2CCN(Cc3ccccc3)CC2)cc1=O,6.8%,0.7,0.1,1.2%,12.3%,/,13.4%
CC1CC(C)CN(S(=O)(=O)c2cccc3nsnc23)C1 (configuration not stated),1.1%,0.8,-17.7,-1.9%,-8.2%,/,16.2%
CN(Cc1ccccc1)S(=O)(=O)c1ccc(OCC(=O)NCc2cccnc2)cc1,-1.4%[15.4 µM],-8.6,0.0,13.4%,-29.5%,-0.4,12.7%
c1ccc(-n2ncc3c(NCc4ccc5c(c4)OCO5)ncnc32)cc1,28.7%,?,-8.7,-3.2%,0.5%,-1.1,-1.4%
CNc1ccc(Br)cc(C(=O)/C=C/c2cccc(Cl)c2Cl)c1=O,?,24.7,-1.3,-0.3%,-12.6%,?,22.4µM*
Cc1ccc(S(=O)(=O)N2CCC(C(=O)Nc3ccc(N4CCOCC4)cc3)CC2)cc1C,-6.1%,-19.7,6.6,2.2%,-1.2%,/,/
CCc1nc(SCC(=O)N2CCN(c3ccccc3)CC2)c2oc3ccccc3c2n1,3.7%,7.2,-5.3,-24.7%,-14.6%,2.0,1.4%
CC(=O)Nc1ccc(C(=O)Nc2cccc(S(=O)(=O)NC3=NCCC3)c2)cc1,-12.9%[15.4 µM],-14.0,2.9,0.6%,-7.6%,/,/
COC(=O)c1cc(S(=O)(=O)NCc2ccc3c(c2)OCO3)c[nH]1,15.9%,?,2.0,-0.5%,-4.5%,-2.9,11.4%
C/C(=N\Nc1cccc(C(=O)O)c1)c1ccc(Cl)s1,?,-5.0,-3.0,/,-6.0%,2.9,-6.8%
COc1ccc(-c2nc(-c3cccc(C)c3)no2)cc1OC,-5.1%,2.2,-5.8,25.1µM*,-14.4%,0.8,-10.9%
O=c1cc(N2CCCCC2)c2ccccc2o1,3.7%,-5.0,15.2,/,-9.3%,1.6,11.5%
COc1cccc(OC)c1OCCCCn1cnc2ccccc2c1=O,20.0%,-6.7,/,2.4%,4.8%,-4.2,?
O=C(Cn1c(=O)oc2ccccc21)Nc1ccccc1Cl,6.0%[15.4 µM],1.6,8.2,-0.2%,8.2%,1.6,1.2%
Cc1nc2c(c3c1[nH]c1ccccc13)C(O)CC(C)(C)C2 (configuration not stated),-4.2%,3.9,-3.4,13.8%,21.9%,0.6,5.9%
COc1ccc(CCCc2nnc(SCC(=O)Nc3nc(C)cs3)n2C)cc1C,-0.3%,0.3,-5.0,2.0%,0.8%,1.8,18.7%
CCC(CC)N1CCN(CC2CC=CCC2)CC1 (configuration not stated),-5.1%[15.4 µM],-3.3,4.2,/,3.8%,-4.8,?
NC(=O)/C(=C/c1cccnc1)NC(=O)c1ccccc1,16.1%[15.4 µM],-7.5,5.3,/,18.0%,-6.4,18.2%
CCCC(C(=O)OCCN(CC)CC)(c1ccccc1)c1ccccc1,/,/,-12.9,-0.5%,-2.1%,2.1,6.2%&37.6%
CCOC(=O)c1ccc(Nc2ncnc3c2cnn3C)cc1,-24.1%,2.3,-0.6,-18.1%,-4.0%,-0.3,14.4%
CC(C)(C)c1ccc(OCC(O)CN2CCN(c3ccccn3)CC2)cc1 (configuration not stated),?,23.0,/,0.4%,-18.5%,/,14.9%
C=CCc1cc(/C=C2/NC(=O)NC2=O)cc(OCC)c1O,-58.5%,8.8,-2.5,/,-18.4%,9.8,2.2%
NC(=O)NCc1cccc(Cl)c1,-52.0%[inhibitor],2.5,9.0,-0.1%,3.3%,-0.6,6.6%
CSCCC(NS(=O)(=O)c1ccc(Cl)cc1)C(=O)OCC(=O)NC1CC1 (configuration not stated),31.4%[15.4 µM],-1.7,2.2,-0.4%,-8.0%,0.5,9.9%
Cc1ccc(OS(=O)(=O)c2ccccc2)c(/C=N/N=C2\NC(=O)C(C)S2)c1 (configuration not stated),-2.5%,5.9,4.6,0.1%,?,-0.6,11.0%
CC(=O)c1cccc(NC(=S)N2CCN(S(=O)(=O)c3ccc(F)cc3)CC2)c1,14.7%[15.4 µM],3.7,-0.1,/,0.1%,/,-19.7%
COc1ccc2nc(-c3ccccc3)nc(SC)c2c1,/,/,10.1,22.4µM*,0.0%,/,/
Cc1ccc(CN2CC(C(=O)N3CCN(S(=O)(=O)c4ccc(C)cc4C)CC3)CC2=O)cc1 (configuration not stated),-2.8%,0.8,2.2,0.1%,-12.1%,/,/
